# TRPV1 PAM: enhances activation of the human vanilloid receptor TRPV1; actives 0.02% (n = 320,000); AID 540277; Q8NER1; potentiation, % at 8.33 µM; TRPV1-expressing cells, Fluo-8 calcium influx, capsaicin EC20 potentiation; host cell line not named in the record; control for the full effect not named in the record; active means potentiation above 80%; inconclusive means 30% to 80%; inactive means below 30%; note: 0% is about no effect
# Target sequence (Q8NER1 whole entry, looked up): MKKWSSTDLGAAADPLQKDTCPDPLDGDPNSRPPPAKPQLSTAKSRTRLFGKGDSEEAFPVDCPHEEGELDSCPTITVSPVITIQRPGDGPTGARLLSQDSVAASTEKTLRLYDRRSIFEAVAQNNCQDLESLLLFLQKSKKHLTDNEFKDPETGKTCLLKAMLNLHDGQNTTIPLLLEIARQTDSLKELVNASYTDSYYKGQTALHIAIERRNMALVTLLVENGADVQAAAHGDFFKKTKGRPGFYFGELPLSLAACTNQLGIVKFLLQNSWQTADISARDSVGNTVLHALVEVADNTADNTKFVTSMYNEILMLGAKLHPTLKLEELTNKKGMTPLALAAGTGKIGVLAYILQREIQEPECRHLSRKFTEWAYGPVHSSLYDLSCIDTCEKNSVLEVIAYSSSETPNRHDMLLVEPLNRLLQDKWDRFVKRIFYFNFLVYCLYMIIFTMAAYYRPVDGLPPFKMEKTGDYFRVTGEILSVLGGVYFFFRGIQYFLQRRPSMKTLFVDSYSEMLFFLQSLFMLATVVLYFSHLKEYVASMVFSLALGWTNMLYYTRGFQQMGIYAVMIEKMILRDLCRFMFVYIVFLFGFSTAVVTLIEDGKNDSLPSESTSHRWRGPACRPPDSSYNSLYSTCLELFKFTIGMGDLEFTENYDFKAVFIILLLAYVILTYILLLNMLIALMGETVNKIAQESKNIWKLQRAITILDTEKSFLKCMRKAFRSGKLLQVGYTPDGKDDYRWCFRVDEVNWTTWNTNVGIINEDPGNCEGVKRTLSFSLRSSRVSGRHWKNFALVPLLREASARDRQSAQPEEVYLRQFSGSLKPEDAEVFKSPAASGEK
#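 Fluo-8 calcium influx in TRPV1-expressing cells, kinetic read (ex 480/em 520 nm). Compound added and read 3 min for agonist activity, followed by capsaicin at EC20 final and 2 min further read for enhancement.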
# TRPML1 blocker: blocks the human TRPML1 channel; activity change, negative = inhibition, % (no concentration beside the values); actives 0.02% (n = 390,000); TRPML1-inducible cells, Ca2+ dye fluorescence, FDSS; hits give low values; inhibition of EC80 agonist-evoked calcium signal; AID 624415; in the data active means activity change below about -50%; inconclusive means about -30% to -50%; inactive means above about -30%;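 note: stimulus is agonist 54-4 at its EC80 concentration; % is set by controls: 0 for no effect and ±100 for the full control effect; compound concentration not given in the record; the text of the record puts the active cut at -80%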
#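 Tet-induced TRPML1-DL cells loaded with Ca8 no-wash calcium dye were read kinetically on FDSS. Compound addition was followed by EC80 agonist 54-4 (4 uM final); inhibition was read over 110 s.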
# gsp antag: gsp mutant antagonism; gsp-mutant cells, cAMP HTRF, 30 min; control for the full effect not named in the record; Potency, µM (highest dose often 76.9 µM), for the others: at the highest dose activity change, negative = inhibition, most hits filed as inhibitors; actives 0.4% (n = 340,000); AID 624288; active = falling curve of any shape with a large fitted effect; inconclusive = falling curve, mostly with a smaller effect; inactive = flat or rising curve; cell line not stated here;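 note: intracellular cAMP measured with PDE inhibitor Ro 20-1724 present during compound exposure; potency is the fitted concentration of half-maximal effect; % is set by controls: 0 for no effect and ±100 for the full control effect; nearly all actives have a fitted effect of over 65% in size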
#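 HTRF cAMP read-out (cAMP-d2 plus anti-cAMP antibody-K in lysis buffer, 30 min RT). Before lysis, cells are exposed to compounds with […] for 30 min at 37C in DPBS containing Ca/Mg, BSA and Tween 20.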
# ClpP mod: qHTS Assay for Activators of ClpP | actives 1.9% (n = 340,000) | purified B. subtilis ClpP, FRET peptide cleavage, 20 min | ATP-dependent Clp protease proteolytic subunit (Bacillus subtilis (strain 168)), P80244 | Potency, µM (highest dose often 57.5 µM), for the others: at the highest dose activity change, negative = active | AID 651965, 2013; active = well fitted falling curve with a large enough effect; inconclusive = small, poorly fitted or top-dose-only effect; inactive = no such curve, though single readings can be large or run the other way; note: potency is the fitted concentration of half-maximal effect; the source files actives as falling curves though it sought activators and does not explain the sign; nearly all actives have a fitted effect of over 65% in size; many hits overshoot -100%
# Target sequence (P80244 whole entry, looked up): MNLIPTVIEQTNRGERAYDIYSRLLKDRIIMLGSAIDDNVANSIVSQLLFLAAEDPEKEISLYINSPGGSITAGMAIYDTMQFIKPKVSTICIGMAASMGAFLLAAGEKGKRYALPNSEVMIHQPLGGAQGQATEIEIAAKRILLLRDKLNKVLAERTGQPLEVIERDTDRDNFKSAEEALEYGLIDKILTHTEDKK
#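 FRET quenching reversal measured ClpP activation: 10 microg/mL B. subtilis ClpP at pH 8 with the FRET-FV decapeptide, read at 430 nm after 320 nm excitation. The 20-min minus 0-min signal was scaled between DMSO/no-enzyme wells and ADEP (5.8 microM final).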
# gsp agonist: gsp mutant agonism. gsp mutant cells, cAMP HTRF, 30 min; control for the full effect not named in the record. AID 624287. Potency, µM (doses to about 76.9 µM), for the others: top-dose activation (cAMP increase), actives largely listed as activators. actives 0.13% (n = 340,000); active = well fitted activation curve with a large enough effect; inconclusive = small, poorly fitted or top-dose-only effect, or another doubt; inactive = no such curve, though single readings can be large or run the other way; cell line not stated here;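 note: phosphodiesterase inhibitor Ro 20-1724 added with compounds to block cAMP breakdown; potency is the fitted concentration of half-maximal effect; nearly all actives have a fitted effect of over 60% in size; about a fifth of the inactives were tested at one dose only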
#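 Cells in DMEM/10% FBS with G418 were pretreated with compounds in DMSO plus […] (300 uM stock) for 30 min at 37C. cAMP was measured by HTRF (cAMP-d2 plus anti-cAMP antibody-K) after 30 min at room temperature.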
# Menin-MLL FL inh: inhibitors of human menin-MLL interaction, wild-type MLL peptide | Fluorescence polarization, fluorescein-MLL peptide displacement from menin | FP activity change, % at 61.4 µM | 290,000 tested, under 10 active; inconclusive = falling polarisation curve, or a change in total fluorescence; inactive = total fluorescence flat and polarisation flat or rising; no compound was filed as active; the % refers to the polarisation; negative = inhibition;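 note: % of control where 0% means no effect; inhibitors lower the polarisation; unlabelled MLL peptide was the positive control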
# Sfp PPTase inh: blocks B. subtilis Sfp PPTase activity. Q9F4F7. Biochemical Sfp PPTase activity, qHTS. Potency, µM, for inactives: max response, negative = inhibition, hits mostly inhibitors. actives 3.5% (n = 310,000); active = well fitted inhibition curve with a large enough effect; inconclusive = small, poorly fitted or top-dose-only effect, or another doubt; inactive = no such curve, though single readings can be large or run the other way;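 note: the enzyme is Sfp with the accession as filed and its product quenches rhodamine fluorescence; potency is the fitted concentration of half-maximal effect; 0% = enzyme reaction without inhibitor and -100% = no enzyme wells; top concentration of the series not given in the record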
#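 Reaction rates are the 30-min fluorescence difference (ex 525, em 598 nm) in wells containing 15 nM Sfp, 5 uM rhodamine-CoA and 12.5 uM BHQ-2-YbbR at pH 7.6 with 10 mM MgCl2.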
# * marks the source's active call; other numbers are inactive results; ? = inconclusive; / = no result given; & = joins results of further samples; [ ] = another dose, or the depositor's remark.
structure	Menin-MLL FL inh	TRPML1 blocker	Sfp PPTase inh	gsp antag	gsp agonist	ClpP mod	TRPV1 PAM
Cn1nc(-c2ccccc2)c2nc3ccccc3nc21	?	-4	3%	-5%	0%	-0.3%	1
CCC(CC)C(=O)c1c[nH]c(C(=O)NN)c1	0.5	-19	-1%	9%	-2%	-2.7%	-4
CCSC(C)CC1C/C(=N/O)c2c(C)noc2C1 (configuration not stated)	3.5	-17	-14%	4%	-1%	-1.1%	8
Cc1ccc(N(CCCCN2C(=O)c3ccccc3C2=O)C(=O)c2ccc(Cl)s2)cc1	2.9	-4	15%	-9%	11%	-3.7%	-3
CN1C(=O)/C(=C/c2cc(C(C)(C)C)c(O)c(C(C)(C)C)c2)NC1=S	?	18	14%	5%	-4%	-1.6%	-3
c1ccc(C2c3c(ccc4ccccc34)Oc3ncn4nc(-c5ccco5)nc4c32)cc1 (configuration not stated)	1.8	20	-8%	19%	?	-6.4%	-4
CSc1ccc(CN(C)C(=O)CSCC(=O)Nc2cc(C)on2)cc1	/	-15	18%	1%	10%[15.4 µM]	-16%	-4
CCOCCOc1cc(NCc2ccccc2)c2ncn(C(C)C)c2c1	/	-3	/	-16%	17%	-3.2%	/
COc1cc2c(cc1OC)C(C)N(C(=O)CCNC(=O)c1ccccc1)CC2 (configuration not stated)	/	10	-2%	10%	1%	-4.3%	29
CC1=NNC(=O)C1CCC(=O)N/N=C\c1cccc(Cl)c1 (configuration not stated)	0.8	-1	19%	0%	16%	/	-16

# 4 entries from above, field by field.
CN1C(=O)/C(=C/c2cc(C(C)(C)C)c(O)c(C(C)(C)C)c2)NC1=S
  Menin-MLL FL inh: ? | TRPML1 blocker: 18 | Sfp PPTase inh: 14% | gsp antag: 5% | gsp agonist: -4% | ClpP mod: -1.6% | TRPV1 PAM: -3

CCSC(C)CC1C/C(=N/O)c2c(C)noc2C1 (configuration not stated)
  Menin-MLL FL inh: 3.5 | TRPML1 blocker: -17 | Sfp PPTase inh: -14% | gsp antag: 4% | gsp agonist: -1% | ClpP mod: -1.1% | TRPV1 PAM: 8

CC1=NNC(=O)C1CCC(=O)N/N=C\c1cccc(Cl)c1 (configuration not stated)
  Menin-MLL FL inh: 0.8 | TRPML1 blocker: -1 | Sfp PPTase inh: 19% | gsp antag: 0% | gsp agonist: 16% | ClpP mod: / | TRPV1 PAM: -16

CCOCCOc1cc(NCc2ccccc2)c2ncn(C(C)C)c2c1
  Menin-MLL FL inh: / | TRPML1 blocker: -3 | Sfp PPTase inh: / | gsp antag: -16% | gsp agonist: 17% | ClpP mod: -3.2% | TRPV1 PAM: /

# More results:
structure	Menin-MLL FL inh	TRPML1 blocker	Sfp PPTase inh	gsp antag	gsp agonist	ClpP mod	TRPV1 PAM
CCOc1ccc(NC(=O)CS(=O)CC(=O)NC2CCCc3ccccc32)cc1 (configuration not stated)	2.4	2	20%	15%	-30%	0.3%	19
COc1ccc(C(c2nnnn2C2CCCCC2)N2CCN(c3ccccc3F)CC2)cc1 (configuration not stated)	-0.9	-2	2%	-3%	-14%	1.8%	-3
CCCCC(=O)NC(Nc1ccc(C)cn1)(C(=O)OCC)C(F)(F)F (configuration not stated)	-2.2	9	10%	-8%	-38%[inhibitor]	-3.3%	-12
CCn1nc(C(=O)N[C@@H](CCSC)c2nc3ccccc3[nH]2)c2ccccc2c1=O	-7.3	-16	4%	26%	3%	-0.5%	-10
Cc1cccc(C(=O)NNC(=O)c2csc(N3CCOCC3)n2)c1C	/	-5	/	18%	-103%[inhibitor]	-7.3%	-3
Cc1ccc(NC(=O)CN2CCc3ccccc3C2)cc1S(=O)(=O)N1CCOCC1	4.1	-7	5%	0%	-6%	-0.7%	-1
CC(=O)Nc1ccc(S(=O)(=O)Nc2nc3ccccc3nc2Sc2nncn2C)cc1	?	14	?	8%	-4%	-13%	6
COc1ccccc1NC(=O)CN1CCN(Cc2ccccc2)CC1	8.7	1	10%	5%	2%	-4.9%	14
Cc1ccc(CN(C(=O)c2cc3ccccc3oc2=O)C2CCS(=O)(=O)C2)cc1 (configuration not stated)	-1.7	12	10%	0%	25%	-12%	1
COc1ccc(Cl)cc1NC(=S)NN1CCOCC1	-1.3	-8	18%	0%	18%	/	7
Cc1cc(=O)oc(C)c1C(=O)NNC(=O)C1(C)CC1Br (configuration not stated)	2.2	10	9%	5%	2%[15.4 µM]	-1.4%	0
CCN(CC(=O)NCc1cccs1)C(=O)c1ccc(-c2ccccc2F)o1	/	-6	/	-9%	-7%	-7.4%	0
COc1ccccc1C(=O)NC(=S)Nc1cc(C(=O)O)ccc1C	-0.4	-4	-28%	?	-3%	/	-27
CCN(CC(=O)Nc1c(F)cccc1F)C(=O)CN1C(=O)NC2(CCCC2)C1=O	/	12	/	12%	-6%[15.4 µM]	/	13
Cc1cc2c(cc1[N+](=O)[O-])NC(CNC(C)C)CC2 (configuration not stated)	-14	32	17%	10%	1%[15.4 µM]	/	17
COc1ccccc1/C=N/NC(=O)c1nnn(-c2nonc2N)c1-c1cccs1	7.6	1	10%	?	9%	-8.1%	-2
COc1cccc(NC(=O)CN(C)C(=O)c2ccccn2)c1	/	0	/	4%	5%	2.3%	/
Cc1cc(C)cc(N(CC(=O)NC2CCCC2)C(=O)CNC(=O)c2cccs2)c1	4.1	-5	12%	-26%	-7%[15.4 µM]	/	29
C[C@H](NC(=O)c1nc[nH]c1C(=O)N(C)Cc1ccccc1)C(=O)OC(C)(C)C	/	-2	/	1%	/	-1.1%	-33
CCOC(=O)C1CCCN(C(=O)/C=C/c2ccc([N+](=O)[O-])cc2)C1 (configuration not stated)	4.3	-5	6%	-3%	-2%	1.5%	18
COc1ccccc1NC(=S)NNC(=O)c1nn(C)c(C)c1Cl	2.4	?	2%	1%	-16%	1.7%	-27
Cc1ccc(-c2nn(-c3ccccc3)cc2/C=N/NC(=O)CSc2nnc(C)n2-c2ccccc2)cc1	1.0	-10	10%	?	-18%	-5.5%	-9
CCN(C(=O)COC(=O)c1ccc2ccccc2c1)c1c(N)n(Cc2ccccc2)c(=O)[nH]c1=O	/	1	/	9%	-27%	-13%	0
O=C(Cn1nnc(-c2ccccc2F)n1)Nc1ccc(C(=O)N2CCOCC2)cc1	3.4	-4	-3%	-7%	25%	0.1%	13
COc1ccc(N(C(=O)c2ccco2)C(C(=O)NC2CCCC2)c2ccc(OC)c(OC)c2)cc1 (configuration not stated)	4.0	-7	8%	-10%	7%	/	-15
CCOC(=O)c1ccc(NC(=O)COc2ccc(S(=O)(=O)NC(C)CC)cc2)cc1 (configuration not stated)	0.6	6	7%	14%	6%	0.3%	-21
O=C(O)C1C2C=CC(C2)C1C(=O)Nc1ccc(Cl)c(Cl)c1 (configuration not stated)	1.9	17	6%	4%	-66%[inhibitor]	/	-7
O=c1[nH]c(CN2CCN(c3ccccc3O)CC2)nc2ccccc12	1.3	-12	-7%	-8%	20%	1.4%	4
O=C(CSCc1ccco1)N1CCc2ccccc21	2.9	5	13%	0%	17%	/	-2
CCN1C(=NCCc2ccccn2)N[C@@H](c2cccc(F)c2)C(C(=O)OC)=C1C	-2.1&-3.4	-9	10%&-4%	-1%	0%	1.2%	1&-8
COc1ccc(OC)c(-c2csc(NC(=O)Cc3ccccc3)n2)c1	/	0	14%	/	-2%[15.4 µM]	/	-15
Cc1ccc(C)c(S(=O)(=O)NCCC(=O)N2CCCC(C(N)=O)C2)c1 (configuration not stated)	/	4	/	7%	-12%	-2.2%	2
Cc1ccc(Nc2nc(Nc3ccc(C)cc3)nc(SC3=NCCS3)n2)cc1	1.2	-6	16%	-10%	-1%	-1.0%	-1
O=C(c1cc2ccccc2oc1=O)N(Cc1ccccc1)C1CCS(=O)(=O)C1 (configuration not stated)	2.4	23	15%	-6%	-33%[inhibitor]	?	7
CC(C)=NOc1nc(N(C)C)nc(N2CCOCC2)n1	0.0	42	-3%	4%	10%[15.4 µM]	1.1%	-4
Cc1nn(CCC(=O)NNC(=S)Nc2ccccc2)c(C)c1Br	5.9	-13	2%	6%	0%	1.0%	-19
CC(C)CNC(=O)[C@H](Cc1ccccc1)NC(=O)c1cccs1	-0.1	-4	11%	3%	-24%	/	9
CCOC(=O)NCc1ccccc1	0.3	-4	7%	8%	/	-1.7%	-2
O=C(/C=C/c1cccc([N+](=O)[O-])c1)Nc1ccc(NC(=O)c2cccs2)cc1	6.3	-1	4%	-6%	-4%	-1.4%	-42
O=C(C1CCN(S(=O)(=O)c2c(Cl)cccc2Cl)CC1)N1CCCC1	/	8	/	2%	-9%[15.4 µM]	0.9%	/
CN(c1ccccc1)S(=O)(=O)c1ccc(C(=O)OCC(=O)NCc2cccs2)cc1	14	-1	2%	5%	1%	1.8%	?
COc1ccccc1C(=O)NC(=O)COC(=O)C1(C)CC1(Cl)Cl (configuration not stated)	/	18	/	2%	12%	-9.0%	-1
Cc1ccnn1C(C)C(=O)O (configuration not stated)	-0.7	-8	12%	-11%	-13%	/	-5
COc1ccc(OCC(=O)Nc2cccc3cccnc23)cc1	0.3	-4	-30%	-32%	-7%	-3.6%	-2
O=C(CCc1nnc2ccc(NCc3ccco3)nn12)Nc1ccccn1	/	-12	8%	9%	20%	1.0%	-11
Cc1cc(C)c(C)c(OCC(O)CN2CCN(c3ccccn3)CC2)c1 (configuration not stated)	-1.8	6	0%	-1%	-20%	0.1%	17
COc1cc(NC(=O)CN2CCCCCC2)cc(OC)c1	-3.5	19	-1%	7%	18%[15.4 µM]	-0.6%	-4
CC1CN(S(=O)(=O)c2cccc(C(=O)Nc3ccccc3N3CCCC3)c2)CC(C)O1 (configuration not stated)	/	-17	/	-12%	-3%[15.4 µM]	-3.6%	?

# Source: PubChem BioAssay (National Center for Advancing Translational Sciences (NCATS))
